NPYLR7 ag: activates Aedes aegypti NPYLR7 receptor; HEK293T NPYLR7/Galpha15, GCaMP6s calcium fluorescence; activation, % at 10 µM; actives 0.15% (n = 270,000); AID 1259423; in the data active = activation above about 40%;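 also: 0% = vehicle and 100% = reference agonist at the receptor; some compounds past the cut are filed as inactive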
NPYLR7 ag max-min: also measured in NPYLR7 ag; calls as there; activation, %; measured here: Max-Min RFU normalised activation; some inactives read as strong as hits;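 span of the calcium signal over five minutes; 0% = vehicle and 100% = native peptide agonist; compound fluorescence can raise it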
Numbers without * were called inactive; & = joins results of further samples. These rows are one share of the data; count on the stated rates, not on these rows.

item	Compound	NPYLR7 ag	NPYLR7 ag max-min
1	COC(=O)Nc1nc2ccc(C(=O)c3ccc(F)cc3)cc2[nH]1	-10&-4	-15&-11
2	Cc1cc([N+](=O)[O-])cc2c1N(C)C(=O)C2(O)c1c(C)[nH]c2ccccc12 (stereo not given)	0	-1
3	O=C(O)C1(C/C=C/c2ccccc2)CCCN(c2ncccc2F)C1 (stereo not given)	0	-1
4	O=C(CN(c1cccc([N+](=O)[O-])c1)S(=O)(=O)c1ccccc1)N(Cc1ccccc1)Cc1ccccc1	8	12
5	O=C(CSc1ncnc2scc(-c3ccccc3)c12)NC1CCN(Cc2ccccc2)CC1	-1	10
6	CCOc1ccc(-c2ccnc(N3CCN(C(=O)c4ccnc(Cl)c4)CC3)n2)cc1	-11	2
7	Cc1cc(C(=O)NCCc2ccccn2)sc1C	2	2
8	CC(C)CC(=O)N1CCCC(OCc2ccc(F)c(F)c2)C1 (stereo not given)	-2	-2

item	Compound	NPYLR7 ag	NPYLR7 ag max-min
9	COc1ccc(-c2nc3scc(CCNS(=O)(=O)c4ccccc4)n3n2)cc1	-5	-2
10	CN(C)c1ccc(C(=O)NCCN2CCc3ccccc3C2)cc1	0	-1
11	O=C(c1ccc2nc3ccsc3c(=O)n2c1)N1CCN(C(=O)c2ccco2)CC1	4	-1
12	CCc1cc(=O)[nH]c(-n2nc(C)cc2NC(=O)c2cccs2)n1	-11	-10
13	Cc1cc(C)n(-c2cccc(-c3ccc(S(N)(=O)=O)cc3F)c2)n1	13	9
14	O=C(CCN1C(=O)/C(=C/c2ccc(F)cc2)SC1=S)Nc1ccccc1	-2	-8
15	c1cc(-c2noc(CC3CSCCN3)n2)cs1 (stereo not given)	2	1
16	CC(=O)Nc1ccc(CN(C)CCC(O)c2ccccc2)cc1 (stereo not given)	-1	18

item	Compound	NPYLR7 ag	NPYLR7 ag max-min
17	CC1CN(C(=O)CN2CCC(c3ccnn3CCO)CC2)CCO1 (stereo not given)	8	6
18	Cc1ccccc1C(=O)N(CC(=O)Nc1cc(-c2ccccc2)nn1-c1ccc(Cl)c(Cl)c1)C(C)C	8	22
19	Cc1noc(C)c1C1CCCN1Cc1ccc(C#CC(C)(C)O)s1 (stereo not given)	4	2
20	CCCC(Sc1nnc(NC(=O)C2CCC2)s1)C(=O)OCC (stereo not given)	-3	10
21	Cc1ccc(-n2ncc3c(=O)n(NC(=O)c4cc(Cl)ccc4[N+](=O)[O-])cnc32)cc1	1	-2
22	CCCCc1ccc(C(=O)N(CC(=O)NCC(=O)Nc2ccc(OC)cc2)Cc2ccccc2)cc1	8	19
23	CC(C)N1CCNC(=O)C1CC(=O)NCCCc1nn[nH]n1 (stereo not given)	8	5
24	Cc1[nH]c(-c2ccccc2)nc1C(=O)N1CCN2C(=O)CN(C)C(=O)C2C1 (stereo not given)	14&3	13&-2

item	Compound	NPYLR7 ag	NPYLR7 ag max-min
25	CCOC(=O)C1(CCCc2ccccc2)CCN(C(=O)C(=O)c2ccccc2)CC1	4&6	1&9
26	O=C1OCCN1CCNC(c1ccccc1)C1CCC1 (stereo not given)	-2	-6
27	COc1ccc(S(=O)(=O)N2c3ccccc3NC(=O)C2C)cc1Cl (stereo not given)	-2	-4
28	CCOc1nc(-c2ccccc2C)n(-c2ccc(NC(=O)c3cccc(F)c3)cc2)n1	20	24
29	CCC(C)C(NC(=O)Nc1ccc(C)cc1C)C(=O)Nc1nnc(-c2ccc(Cl)cc2)s1 (stereo not given)	-3	11
30	CCN(C(=O)CSc1nc(C)nc2sc3c(c12)CCC3)C1CCS(=O)(=O)C1 (stereo not given)	-1	-6
31	COCCn1c(=O)c2c(nc3n(C(C)C)c(C)c(C)n23)n(C)c1=O	8	11
32	O=CN1CCN(S(=O)(=O)CCCOc2ccc3c(c2)OCO3)CC1	9	11

item	Compound	NPYLR7 ag	NPYLR7 ag max-min
33	CCOC(=O)Cn1cc(Cl)c([N+](=O)[O-])n1	1	7
34	CCOc1ccc(-c2cc(C(=O)NC3CCc4ccccc43)c3ccccc3n2)cc1 (stereo not given)	2	1
35	COc1cc(NCCS(=O)(=O)c2ccc(C)cc2)ncn1	7	-8
36	CSc1nnc2c(n1)OC(c1cccc(F)c1)Nc1ccccc1-2 (stereo not given)	1	-3
37	Cc1nc2c(C(=O)N3CCC4(CCC(=O)N(C)CC4)CC3)cccc2[nH]1	5	4
38	c1csc(CN(c2ncnc3ccsc23)C2CC2)c1	13	11
39	Fc1ccc(-c2nc(CSc3nnc4c(Cl)cc(C(F)(F)F)cn34)cs2)cc1	15	15
40	C=CCN1C(=O)NC(c2ccsc2)C2=C1CN(CCOC)C2=O (stereo not given)	-4	2

item	Compound	NPYLR7 ag	NPYLR7 ag max-min
41	CCOc1cc(Br)c(Br)c(/C=C2\SC(=S)N(CC(=O)O)C2=O)c1O	6	4
42	CN(C)C(CNC(=O)N(C)C1CC1)c1ccc(Cl)cc1 (stereo not given)	-1	-2
43	CCOC(=O)CSC(C)C(=O)Nc1ccc(S(=O)(=O)N2CCCC2)cc1 (stereo not given)	0	-1
44	CCN(C(=O)Cn1ccnn1)C1CCCC1	0	14
45	CCOc1ccccc1C(=O)Nc1ccc(N2CCN(S(=O)(=O)c3cc(F)cc(F)c3)CC2)nc1	30	19
46	Cc1nn(CCC(C)C)c(=O)c2c1cnn2C(C)(C)C	-3	-3
47	O=C(CC(c1ccccc1)c1cccc(Cl)c1)N1CCN(CCO)CC1 (stereo not given)	0	-4
48	CS(=O)(=O)c1ccccc1C(=O)NC12CC3CC(CC(C3)C1)C2	-10	-11

item	Compound	NPYLR7 ag	NPYLR7 ag max-min
49	CC(CC(=O)Nc1ccc(-c2onc3c2CCCC3)cc1)CC(C)(C)C (stereo not given)	1	-3
50	N[C@@H]1c2ccccc2C2(CCN(C(=O)CCc3nc4ccccc4[nH]3)CC2)[C@H]1O	21	6
51	Cc1oc(C)c(-c2ccc(Cl)cc2)c1C(=O)N1CCC(O)(c2ccccc2)CC1	-17	-21
52	CC(C)n1c2ccccc2c2n[nH]c(=S)nc21	-6	-6
53	Cc1cc(C)nc(NS(=O)(=O)c2ccc(NC(=O)/C=C/c3ccc(F)cc3)cc2)n1	5	4
54	CCCc1cc(C(=O)N2CCC3(CCC(=O)N(C)CC3)CC2)ccn1	9	5
55	CCOC(=O)N1CCC(NC2CCN(c3cccc(NC(=O)c4ccccc4OC)c3)CC2)CC1	16	1
56	Cc1cccc(-n2ncc3c(=O)n4c(nc32)SCC4CC(=O)NCc2ccncc2)c1 (stereo not given)	2	-1

Of the compounds above, these contain a COOH group.
item	Compound	NPYLR7 ag	NPYLR7 ag max-min
3	O=C(O)C1(C/C=C/c2ccccc2)CCCN(c2ncccc2F)C1 (stereo not given)	0	-1
41	CCOc1cc(Br)c(Br)c(/C=C2\SC(=S)N(CC(=O)O)C2=O)c1O	6	4

Next section
item	Compound	NPYLR7 ag	NPYLR7 ag max-min
57	COc1ccccc1CN1CC(C(=O)NCCc2cnccn2)CCC1=O (stereo not given)	2	-3
58	CC(=O)Nc1cccc(C(=O)NC2(Cc3ccc(C)cc3)CC2)c1	0	0
59	COc1ccc(C(C)N(C(=O)c2scnc2C)C2CCC(C)CC2)c(OC)c1 (stereo not given)	8	6
60	CCCC(=O)Nc1ncnc2c1ncn2[C@@H]1O[C@@H]2OP(=O)(O)OC[C@H]2[C@H]1OC(=O)CCC	3	-3
61	Cc1noc(-c2ccc(OC(F)(F)F)cc2)c1C(=O)NCc1cccnc1	6	9
62	Cc1ccc(NC(=O)C2(C)CCN2CCc2ccccc2)cc1O (stereo not given)	8	-1
63	O=C(O)c1ccccc1CN1CCC2(CCOCC2)CC1	0	-1
64	Cc1ccc(C2c3cccn3CCCN2Cc2cccc(F)c2)c(C)c1 (stereo not given)	-1	12

item	Compound	NPYLR7 ag	NPYLR7 ag max-min
65	CCC1=NOC(CNC(=O)c2cnn3ccn(C)c23)C1 (stereo not given)	-1	-3
66	O=C(c1ccc(F)cc1C(F)(F)F)N1CCN(c2nc3nccc(-c4ccc(N5CCOCC5)cc4)n3n2)CC1	0	-2
67	Cc1[nH]cnc1CN1CCOc2c(O)cc(-c3cccc(Cl)c3)cc2C1	0	0
68	Clc1ccc(-c2nnc(CSc3nnc4n3CCCCC4)o2)cc1	10	7
69	COc1ccccc1CN(C)CCS(=O)(=O)c1ccc(Br)cc1	-1	-1
70	CCC1(CO)CCCN(C(=O)c2csc3nc(-c4cccc(OC)c4)cn23)C1 (stereo not given)	1	-2
71	COCCCN(CC(=O)N(Cc1cccn1Cc1ccc(F)cc1)C1CCCCC1)C(=O)COC	-7	-3
72	COc1ccc(CCNC2CC(=O)N(c3ccccc3F)C2=O)cc1 (stereo not given)	2	-1

item	Compound	NPYLR7 ag	NPYLR7 ag max-min
73	O=c1[nH]c2cc3ccccc3c(=O)n2c2ccccc12	3	3
74	O=C(NCCOc1cc(N2CCCCC2)ncn1)Nc1ccccc1Cl	-1	-2
75	CCCCNc1cc(=O)n(-c2ccccc2C)nc1C(=O)OCC	5	1
76	COCCNc1cc(C(=O)Nc2cccc(OCc3ccccc3)c2)ncn1	-5	-11
77	Cc1cc(C)nc(Cc2nc3ccc(Br)cc3c(=O)[nH]2)n1	-23	-21
78	c1cc2nc(NC3CCCC3)ccn2n1	1	1
79	CCCc1nc2c(c(=O)c3ccccc3n2C)c(=O)n1CCCOC	-4	-3
80	Cc1cc(C)n(CC(=O)N2CCCC(C(=O)c3cccc(OC(C)C)c3)C2)n1 (stereo not given)	0	-1

item	Compound	NPYLR7 ag	NPYLR7 ag max-min
81	CCCc1c(-c2ccc(O)cc2)nn(-c2ccc(O)cc2)c1-c1ccc(O)cc1	-2	-24
82	CCN(CCc1nc2ccc(F)cc2[nH]1)C(=O)c1c(C)noc1C	0	-5
83	CCN(C(=O)CSc1nnc(-c2ccncc2)n1C)c1ccc(F)cc1	26	15
84	Cc1ccc(-c2ccc(=O)n(CCCNC(=O)C(C)Oc3ccc4c(c3)OCO4)n2)cc1 (stereo not given)	0	0
85	NC(=O)c1ccc(CN(CC(=O)Nc2ccc(F)c(F)c2)C2CC2)cc1	4	3
86	C[n+]1csc2ccccc21	5	7
87	O=C(Cc1cccs1)Oc1coc(CSc2ncccn2)cc1=O	-14	-13
88	COc1ccc(/C=C(/C#N)C(=O)Nc2ccccc2OC)cc1	0	-1

item	Compound	NPYLR7 ag	NPYLR7 ag max-min
89	COc1cccc(CN2CCC2(C)C(=O)Nc2ccc3c(c2)OCCO3)c1F (stereo not given)	6	1
90	Cc1ccc(C(C)(C)C)cc1S(=O)(=O)N1CCn2cccc2C1C (stereo not given)	-1	-3
91	O=C(Cn1c(O)c(N=Nc2ccccc2[N+](=O)[O-])c2ccccc21)Nc1ccccc1	-5	-12
92	CCOC(=O)C1(Cc2ccccc2C)CCCN(C(=O)c2ccc3nccnc3c2)C1 (stereo not given)	-8	-10
93	Cc1cc(C)c(NC(=O)C2=NN(C)C(=O)CC2)c(Cl)c1	-1	-3
94	CC1CC(NN(C)C)C(C#N)(C#N)C(C)C1(C#N)C#N (stereo not given)	0	48
95	Cc1ccc(-c2ccc(=O)n(CCCNC(=O)Nc3ccc4c(c3)OCO4)n2)cc1	-2	-4
96	Cc1cccc(NC(=O)CSc2nc3c(c(=O)[nH]2)CN(CCc2ccccc2)CC3)c1C	-6	-7

Entries of single compounds as entered above. Order of screens: NPYLR7 ag	NPYLR7 ag max-min
O=C1OCCN1CCNC(c1ccccc1)C1CCC1 (stereo not given) is listed as -2	-6
CCC1=NOC(CNC(=O)c2cnn3ccn(C)c23)C1 (stereo not given) is listed as -1	-3
COc1ccc(/C=C(/C#N)C(=O)Nc2ccccc2OC)cc1 is listed as 0	-1
Cc1ccccc1C(=O)N(CC(=O)Nc1cc(-c2ccccc2)nn1-c1ccc(Cl)c(Cl)c1)C(C)C is listed as 8	22
O=C(CN(c1cccc([N+](=O)[O-])c1)S(=O)(=O)c1ccccc1)N(Cc1ccccc1)Cc1ccccc1 is listed as 8	12

(next part)
item	Compound	NPYLR7 ag	NPYLR7 ag max-min
97	C=CCN(CC=C)C(=O)c1cc(OC)c(OC)c(OC)c1	8	2
98	CC(=O)Nc1nnc(SCCCOc2ccccc2)s1	-3	5
99	COc1ccc(OCCN(C)CN2C(=O)NC3(CCC(C(C)(C)C)CC3)C2=O)cc1 (stereo not given)	12	13
100	Cn1nnc2c(N3CCN(C(=O)C4c5ccccc5Oc5ccccc54)CC3)ncnc21	1	11
101	CCOc1ccccc1N1CCN(C(=O)c2cc(-c3cccc(OC)c3)nc3cc(C(C)(C)C)nn23)CC1	-10&8	-5&7
102	O=C(Cc1ccsc1)NCc1cccs1	6	7
103	CC(=O)Oc1c(C)cc(CN(C)Cc2c(C)noc2C)cc1C	-1	1
104	CN(CC1(N2CCOCC2)CCCCC1)C(=O)c1cn(CCC2CCCCC2)nn1	2	1

item	Compound	NPYLR7 ag	NPYLR7 ag max-min
105	O=C(c1nc2ccccn2c1-c1nc2ccc(F)cc2[nH]1)N1CCOCC1	22	16
106	O=[N+]([O-])c1ccc(S(=O)(=O)NCCOc2ccc(-c3cccs3)nn2)cc1	-1	-2
107	Cc1cc(C(=O)Nc2cccc(C(=O)N(C)C)c2)no1	2	1
108	CCCc1nnc2c(C(=O)NCc3ccco3)cccn12	-3	-9
109	CN(c1ccccc1)c1ccc(CN2CCC(CO)(CC3CCCCO3)CC2)cc1 (stereo not given)	2	-1
110	Cn1ccnc1C(NC(=O)CSCc1ccccc1Cl)C1CC1 (stereo not given)	2	2
111	CCOC(=O)CNC(=O)N1CCCC(CNC(=O)c2cccc(C(F)(F)F)c2)C1 (stereo not given)	11	10
112	O=C(CC1CC2CCC1C2)OCc1coc(-c2cccs2)n1 (stereo not given)	2	1
113	Oc1cccc(-c2cc(C3(CNc4cccc(F)c4)CC3)ccn2)c1	-14	-15
114	COc1ccc(Cl)cc1C(=O)Oc1cccc2cccnc12	-4	-11
